High-throughput results from PubChem BioAssay.
NS1 function inh = qHTS Assay for Inhibitors of Influenza NS1 Protein Function. Potency, µM (highest dose often 46.1 µM), inactives show top-dose activity, positive = more growth. 0.4% of 270,000 active. AID 2326, 2010. S. cerevisiae slowed by influenza A NS1, growth recovery by OD600; active means well fitted rising curve with a large enough effect; inconclusive means small, poorly fitted or top-dose-only effect; inactive means no such curve, though single readings can be large or run the other way; note: nearly all actives have a fitted effect of over 50% in size
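Compounds were scored for reversing the slow growth caused by influenza A NS1 in S. cerevisiae, measured by optical density at 600 nm. Assay medium contained 2% galactose at pH 6.0; NS1-free yeast of the same strain were the positive control.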
Lassa entry inh = qHTS for Inhibitors of binding or entry into cells for Lassa Virus | Lassa virus pseudotype entry inhibition, cell reporter; control for the full effect not named in the record | Potency, µM (top dose mostly 37.9 µM), without a hit: at the highest dose activity change, negative = inhibition, actives largely listed as inhibitors | 1.2% of 300,000 active | AID 540256, 2011; active means well fitted inhibition curve with a large enough effect; inconclusive means small, poorly fitted or top-dose-only effect, or effect the other way; inactive means flat fitted curve, though single readings scatter; tested in HEK293 cells; note: % is set by controls: 0 for no effect and ±100 for the full control effect; nearly all actives have a fitted effect of over 50% in size; luciferase read-out
2A StopGo = High Throughput Screening for Foot and Mouth Disease Virus Antivirals; human cells with a luciferase reporter of 2A StopGo recoding; control for the full effect not named in the record; Potency, µM (series often up to 57.9 µM), for the others: at the highest dose signal change, negative = less light; 1.2% of 410,000 active; active = well fitted falling curve with a large enough effect; inconclusive = small, poorly fitted or top-dose-only effect; inactive = no such curve, though single readings can be large or run the other way; tested in HEK293T cells; note: % is set by controls: 0 for no effect and ±100 for the full control effect; nearly all actives have a fitted effect of over 45% in size; luciferase light after 4 h
Cruzain inh noDet = qHTS Assay for Promiscuous and Specific Inhibitors of Cruzain (without detergent); Cruzipain (Trypanosoma cruzi), P25779; purified cruzain, Z-FR-AMC fluorescence, no detergent; Potency, µM, for inactives: max response, negative = inhibition, most hits filed as inhibitors; 2.3% of 200,000 active; AID 1476, 2009;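 note: plate controls were enzyme without inhibitor for no effect and buffer without enzyme for full effect; nearly all actives have a fitted effect of over 40% in size; top concentration of the series not given in the record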
Target sequence (P25779 123-467 limits assumed): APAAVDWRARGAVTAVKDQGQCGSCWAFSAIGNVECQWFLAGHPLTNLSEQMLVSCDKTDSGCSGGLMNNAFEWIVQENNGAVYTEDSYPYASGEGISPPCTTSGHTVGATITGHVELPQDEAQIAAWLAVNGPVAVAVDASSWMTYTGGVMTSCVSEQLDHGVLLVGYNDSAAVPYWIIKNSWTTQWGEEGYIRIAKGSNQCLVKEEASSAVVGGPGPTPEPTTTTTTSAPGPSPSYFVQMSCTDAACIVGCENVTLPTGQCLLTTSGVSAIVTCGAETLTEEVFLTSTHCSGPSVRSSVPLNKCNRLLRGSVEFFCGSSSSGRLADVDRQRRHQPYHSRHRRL
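Purified cruzain at 1.5 nM, pre-incubated 15 min with compound at room temperature in 100 mM sodium acetate pH 5.5, 5 mM DTT, 0.00005% Triton X-100. Reaction started with 2 uM Z-FR-AMC; AMC fluorescence increase over 60 s gives rate.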
RE007 growth inh = qHTS Assay for Inhibitors of the HIV-1 protein Vpr | AID 651644, 2012 | Potency, µM (top dose mostly 92.2 µM), for the others: at the top dose activity change, negative = less growth | 0.21% of 360,000 active | S. pombe RE007 Vpr strain, BacTiter-Glo ATP luminescence, 24 h; control for the full effect not named in the record; active = well fitted falling curve with a large enough effect; inconclusive = small, poorly fitted or top-dose-only effect; inactive = no such curve, though single readings can be large or run the other way;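 note: % is set by controls: 0 for no effect and ±100 for the full control effect; nearly all actives have a fitted effect of over 50% in size; the assay follows cell death caused by Vpr and the record does not say whether a fall means rescue or toxicity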
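Fission yeast RE007 carrying one integrated HIV-1 vpr copy, seeded at OD 0.01 in PMG+AL medium with 23 nL pinned compound. Grown 24 h at 30 degrees; viability read by BacTiter-Glo luminescence after 5 min.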
Cruzain Triton = qHTS Assay for Promiscuous and Specific Inhibitors of Cruzain (with detergent). purified cruzain, Z-FR-AMC fluorescence, 0.01% Triton. Potency, µM, inactives show max response, negative = inhibition, most hits filed as inhibitors. 0.43% of 200,000 active;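 note: plate controls were neutral wells for no effect and buffer without enzyme for full effect; nearly all actives have a fitted effect of over 40% in size; top concentration of the series not given in the record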
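Compounds were screened in titration against cruzain (1.5 nM) with 0.01% Triton X-100 to counter colloidal aggregation. Activity was the AMC fluorescence increase over 60 s after adding 2 uM Z-FR-AMC at pH 5.5.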
MARV entry inh = qHTS for inhibitors of binding or entry into cells for Marburg Virus; AID 540276, 2011; 1.8% of 300,000 active; Potency, µM (series often up to 37.8 µM), for the others: top-dose activity change, negative = inhibition, most hits filed as inhibitors; Marburg virus pseudotyped entry inhibition, cell reporter; control for the full effect not named in the record; about a third of the inactives were read at about 46 µM; active = well fitted inhibition curve with a large enough effect; inconclusive = small, poorly fitted or top-dose-only effect, or effect the other way; inactive = flat fitted curve, though single readings scatter; tested in HEK293 cells; about a fifth of its hits are not listed in these tables; note: % is set by controls: 0 for no effect and ±100 for the full control effect; luciferase read-out
SARS PLpro yeast = qHTS of Yeast-based Assay for SARS-CoV PLP; 0.19% of 330,000 active; S. cerevisiae expressing SARS-CoV PLpro, growth rescue; control for the full effect not named in the record; Potency, µM (top dose mostly 32.9 µM), for the others: top-dose activity, positive = growth rescue; active means well fitted rising curve with a large enough effect; inconclusive means small, poorly fitted or top-dose-only effect; inactive means no such curve, though single readings can be large or run the other way; note: 0% is about no effect; nearly all actives have a fitted effect of over 55% in size; growth read by luminescence after 48 h
The depositor's hits bear a star; ? = inconclusive; nt = no result given; & = joins results of further samples; [ ] = dose if it differs, or a comment. Unless noted, calls come from the whole dose curve; as a rule, active = well fitted curve in the direction sought with a large enough effect; inconclusive = small, poorly fitted or top-dose-only effect, or another doubt; inactive = no such curve, though single readings can be large; an effect the other way counts as inactive or inconclusive. Potency is the fitted concentration of half-maximal effect.

The line under a structure holds: NS1 function inh	Lassa entry inh	2A StopGo	Cruzain inh noDet	RE007 growth inh	Cruzain Triton	MARV entry inh	SARS PLpro yeast
- O=C(NCc1ccco1)c1ccc(CS(=O)(=O)Cc2ccc(Cl)cc2)o1
    -9%	-14%	-28%	0%	-2%	2.3%	23%	2%
- Cn1cnnc1Sc1ccc(C(=O)NCCC(c2ccccc2)c2ccccc2)cc1[N+](=O)[O-]
    ?	-4%	-3%	?	?	-7.7%	-12%	5%
- O=C(Cc1ccc2c(c1)CCCC2)Nc1ccc2ccccc2c1
    -11%	?	58%[activator]	-22%	-6%	-7.6%	-11%	-12%
- Nc1nc2nccc(-c3cccnc3)n2n1
    nt	?	3%	nt	-6%	nt	26%[46.1 µM]	-1%
- CCCN(Cc1cc2cc(C)ccc2[nH]c1=O)C(=O)c1cccc([N+](=O)[O-])c1
    2%	nt	-2%	nt	38%	nt	nt	0%
- CC(C)COc1ccc(-c2nonc2NC(=O)c2ccc(F)cc2)cc1
    nt	24%[46.1 µM]	-9%	0%	nt	-3.5%	-19%[46.1 µM]	nt
- Cc1cc(C)nc(SCc2ccc(C(=O)N/N=C3\CCCC(=O)C3)cc2)n1
    nt	7%[46.1 µM]	7%	nt	-28%	nt	?	2%
- CCOC(=O)C1CCCN(CCC(C)c2ccccc2)C1 (stereo not drawn)
    2%	25%[14.3 µM]	-22%	12%	14%	6.5%	-16%	15%
- CCn1c(SCC(=O)N2CC(=O)Nc3ccccc32)nnc1-c1ccoc1C
    2%	6%	-9%	3%	-23%	1.4%	8%	-1%
- CCCC12CN3CC(CCC)(CN(C1)C3c1c[nH]c3ccccc13)C2=O (stereo not drawn)
    nt	1%[46.1 µM]	?	-12%	nt	-1.4%	nt	nt
- CC(C)n1c(SCC(=O)Nc2nc3c(s2)CCCC3)nc2c1c(=O)n(C)c(=O)n2C
    -7%	?	25µM*	?	5%	-5.5%	?	4%
- COc1ccccc1C(=O)NCC1CCN(c2ccc(S(=O)(=O)N3CCOCC3)cc2)CC1
    -5%	-6%	nt	?	-1%	-0.6%	-30%	1%
- COc1ccc2[nH]c3c(=S)nc[nH]c3c2c1
    2%	0%	20%	nt	-1%	nt	16%[46.1 µM]	1%
- CCOc1ccccc1CN1CCNC(=O)C1CC(=O)N(C)C1CCOCC1 (stereo not drawn)
    0%	nt	4%	nt	13%	nt	nt	-2%
- CCc1ccccc1NC(=O)CCCN1C(=O)COc2ccc(C)cc21
    nt	nt	-23%	-5%	nt	-3.7%	-19%[46.1 µM]	nt
- CCn1nnnc1SCC(=O)N1CCCc2ccccc21
    2%	14%	-6%	-11%	-18%	1.3%	23%[46.1 µM]	14%
- CCN(CC)c1ccc(S(=O)(=O)N2CCOCC2)cc1NC(=O)C1CC1
    nt	17%	-6%	nt	17%	nt	21%	-1%
- COc1cc(OC)cc(C(=O)N2CCN(c3ccccn3)CC2)c1
    1%	-21%[46.1 µM]	-6%	nt	14%	nt	27%[46.1 µM]	3%
- Cc1nc2c(c(C)c1CCC(=O)Nc1ccc(F)cc1)c(=O)n(C)c(=O)n2C
    nt	22%[46.1 µM]	-7%	-7%	nt	1.1%	5%[46.1 µM]	nt
- O=C(NCc1ccccc1F)C1CCN(S(=O)(=O)c2ccccc2)CC1
    6%	-7%	-2%	nt	-2%	nt	7%[46.1 µM]	0%
- COc1ccc(Br)cc1CNC(=O)CCc1nc(-c2ccc(C)cc2)no1
    -10%	3%	?	-6%	-5%	-4.0%	19%&19%	0%
- Cc1nnc2n(-c3ccccc3)c(=O)c3ccccc3n12
    nt	13%[46.1 µM]	-12%	nt	-1%	nt	-4%[46.1 µM]	nt
- Cc1nc2cccnc2n1C1CCN(C(=O)Nc2ccccc2)CC1
    nt	2%[46.1 µM]	10%	28%	nt	1.7%	nt	nt
- CC(C)(C)c1ccc(C(=O)NCC(=O)OCC(=O)N2CCN(S(=O)(=O)c3ccc(Cl)cc3)CC2)cc1
    nt	-1%	28%	nt	12%	nt	32%	-2%
- O=C(OCc1cc(Cl)ccc1OC(F)F)c1cc(S(=O)(=O)O)ccc1O
    3%	nt	nt	6%	nt	-3.0%	1%	1%
- C=CCn1c(=N)c(C(=O)OCC)cc2c(=O)n3cc(C)ccc3nc21
    8%	nt	nt	-6%	nt	3.7%	-4%	6%
- NC(CCC(=O)O)C12CC3CC(CC(C3)C1)C2 (stereo not drawn)
    4%	7%[46.1 µM]	-5%	nt	-4%	nt	?	0%
- O=C(Cn1c(=O)oc2cc(S(=O)(=O)NCc3ccccc3)ccc21)NCc1ccc(F)cc1
    nt	nt	6%	-1%	nt	-4.3%	-24%[46.1 µM]	nt
- O=C1N=c2ccccc2=C1c1[nH]c(=S)[nH]c1O
    7%	-1%	-9%	-24%	0%	2.5%	12%	-1%
- O=C(NCC1CCCO1)NC12CC3CC(CC(C3)C1)C2 (stereo not drawn)
    -5%	3%	nt	0%	1%	5.1%	-5%	3%
- COc1ccccc1N(CC(O)Cn1ccnc1C)S(=O)(=O)c1ccccc1 (stereo not drawn)
    nt	-1%	-12%	nt	-5%	nt	19%[46.1 µM]	-1%
- CCN1CCN(C2CCCCC2NS(=O)(=O)c2ccc(Cl)cc2)CC1 (stereo not drawn)
    2%	nt	-12%	nt	-1%	nt	nt	0%
- COc1ccc(Nc2nc(C)nc3c2nnn3Cc2ccccc2Cl)c(OC)c1
    -2%	nt	-18%	nt	-11%	nt	nt	-1%
- Cc1ccc(Cl)cc1NC(=O)Cn1cc(C(F)(F)F)cc(Cl)c1=O
    18%	-5%	0%	2%	-9%	-2.3%	?	-18%
- Cc1cccc(NC(=O)CCCC(=O)OC(C)C(=O)c2ccccc2)c1 (stereo not drawn)
    -12%	-2%[46.1 µM]	28%	nt	-11%	nt	?	-3%
- Cc1c(OC(C(=O)O)c2ccccc2)ccc2c1oc(=O)c1ccccc12 (stereo not drawn)
    -16%	nt	-2%	nt	5%	nt	nt	-2%
- CC(C)Oc1cccc(NC(=O)c2cnccc2C(F)(F)F)c1
    1%	nt	11%	nt	2%	nt	nt	-1%
- Cc1ccc(NC(=O)c2ccc(-n3cccn3)c([N+](=O)[O-])c2)cc1
    -26%	-20%	-4%	-7%	-9%	-5.1%	8%	-26%
- C=CCN1C(=O)c2ccccc2Sc2ccc(C(=O)N3CCN(C)CC3)cc21
    -11%	-2%	-3%	11%	-8%	4.4%	-29%	1%
- O=C(Nc1ccc(N2CCOCC2)cc1)c1cccc(S(=O)(=O)N2CCCC2)c1
    3%	0%	-29%	-10%	9%	-2.2%	0%	4%
- CN(C)c1ccc(N2CC(C)(C)C2=O)cc1
    nt	?	34%[activator]	nt	-14%	nt	3%[46.1 µM]	-4%
- CCc1nc2ccc(C(=O)Nc3ccc(NC(C)=O)cc3)cc2nc1CC
    -3%	-5%	-21%	1%	4%	-1.6%	0%	5%
- COc1cccc(N(C(=O)c2sc(C)nc2C)C(C(=O)NCC2CCCO2)c2ccccc2)c1 (stereo not drawn)
    -13%	?	2%	nt	2%	nt	-10%[46.1 µM]	0%
- Cc1cccc(NC(=O)CN(C)S(=O)(=O)c2cnc[nH]2)c1C
    nt	19%[46.1 µM]	6%&25%	4%	17%	0.5%	11%[46.1 µM]	nt
- CNNC(=O)C(C)NC(=O)c1ccc(Br)cc1 (stereo not drawn)
    1%	-12%	14%	5%	12%	3.9%	9%	-7%
- CCCCn1c(CNC(=O)C23CC4CC(CC(C4)C2)C3)nnc1SCC(=O)Nc1ccc(F)cc1
    nt	0%[46.1 µM]	-7%	?	nt	-2.0%	?	nt
- Cc1ccc(CCNS(=O)(=O)c2ccc3c(c2)NC(=O)CCS3)cc1
    9%	nt	16%	nt	0%	nt	nt	-3%
- CCn1c(SCC(=O)Nc2nccs2)nnc1-c1ccc(S(=O)(=O)N2CCCCC2)cc1
    -11%	-2%	25µM*	-8%	19%	-1.4%	-24%&-24%	7%
- CCOc1ccccc1NC(=O)Cn1c(=O)n(CCCCC(=O)NCCCOC)c(=O)c2ccccc21
    nt	8%[46.1 µM]	-15%	-12%	nt	-9.1%	2%[46.1 µM]	nt
- CC(C)(C)c1ccc(-c2noc(CCC(N)=O)n2)cc1
    -10%	?	-26%	-3%	16%	-3.3%	1.5µM*	-2%
- O=C(CSc1nc2ccccc2[nH]1)Nc1ccc2[nH]c(=O)[nH]c2c1
    nt	15%	-8%	nt	8%	nt	17%	1%
- COc1ccc(NC(=O)/C(C#N)=C/c2c(C)nn(-c3ccc(F)cc3)c2Cl)cc1OC
    25%	?	22µM*	?	-14%	-2.6%	?	26%
- Cc1cc(NC(=O)C2CCCC2)nc2c1c(=O)oc1ccccc12
    -32%	?	?	8%	-12%	-6.3%	?	-6%
- CCn1c(C(=O)NCc2ccccn2)cc2sccc21
    -5%	8%	19%	-7%	-1%	-3.2%	-5%	-3%
- O=C(Nc1ccccc1)Oc1cccc(Br)c1
    0%	nt	39%[activator]	nt	-19%	nt	nt	0%
- CSCCC(NS(=O)(=O)c1cccc(C(F)(F)F)c1)C(=O)Nc1ccccc1N1CCCC1 (stereo not drawn)
    nt	?	-27%	nt	3%	nt	?	0%
- COc1ccc(-c2nnn(CC(=O)N(CCO)C(C(=O)NC3CCCC3)c3ccncc3)n2)cc1 (stereo not drawn)
    -2%	9%	-5%	nt	-3%	nt	-20%[46.1 µM]	-4%
- COc1ccc(-n2nc(C(=O)NCC(=O)Nc3cc(OC)c(OC)c(OC)c3)c3ccccc3c2=O)cc1
    -14%	nt	-29%	nt	-11%	nt	?	1%
- COc1ccc(CNC(=O)Cn2nc([N+](=O)[O-])c(Br)c2C)cc1OC
    5%	?	-21%	nt	-15%	nt	-4%[46.1 µM]	0%
- O=S(=O)(c1ccc(S(=O)(=O)N2CCC(O)CC2)cc1)N1CCCC1
    2%	2%[46.1 µM]	17%	nt	-16%	nt	0%[46.1 µM]	2%
